Screening results from PubChem.
S1P4 ag – activates the human S1P4 receptor. S1P4-expressing cell line, agonist reporter assay. activation, % at 4.98 µM. 220,000 tested, 0.35% active; in the data active = activation above about 11%;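 note: 0% = DMSO vehicle and 100% = reference agonist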
Target sequence (O95977 whole entry, looked up): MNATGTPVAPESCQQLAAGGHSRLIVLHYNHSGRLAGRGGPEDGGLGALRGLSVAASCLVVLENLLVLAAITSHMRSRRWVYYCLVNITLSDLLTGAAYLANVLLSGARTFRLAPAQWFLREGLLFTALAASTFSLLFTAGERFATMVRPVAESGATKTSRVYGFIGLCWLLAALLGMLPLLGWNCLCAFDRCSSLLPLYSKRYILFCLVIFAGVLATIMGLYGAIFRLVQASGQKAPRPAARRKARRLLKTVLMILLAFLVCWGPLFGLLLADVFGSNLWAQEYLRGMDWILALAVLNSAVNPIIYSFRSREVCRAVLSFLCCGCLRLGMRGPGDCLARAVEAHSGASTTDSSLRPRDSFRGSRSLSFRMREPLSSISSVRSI
S1P4 antagonist – human S1P4 receptor antagonism; O95977; S1P4-expressing cells, antagonist mode, reporter read-out; AID 1510; inhibition, % at 4.98 µM; 220,000 tested, 0.26% active; in the data active = inhibition above about 29%;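 note: 0% = wells stimulated with agonist and 100% = vehicle wells without agonist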
CHOP inh – inhibitors of CHOP induction in ER stress response; CHO-K1 CHOP-promoter luciferase, tunicamycin-induced, 15-18 h; inhibition, % at 10 µM; 220,000 tested, 3.8% active;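 active = compounds that reduced the stress-induced luciferase reporter signal by more than about 70% of percent inhibition, limit read from the data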;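 note: 0% = tunicamycin plus vehicle and 100% = wells without tunicamycin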
BaF3 tox – counter-screen for JAK2V617F inhibitors: parental Ba/F3 viability inhibitors | 220,000 tested, 1.1% active | inhibition, % at 5.6 µM | AID 1486 | CellTiter-Glo ATP luminescence;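 active = inhibition above a per-campaign cutoff, the mean inhibition of all tested compounds plus 3 SD, cut at about 27% in these data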;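 note: 0% = DMSO wells and 100% = JAK Inhibitor I control wells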
Ba/F3 V617F tox – reduce viability of Ba/F3 cells dependent on JAK2V617F; inhibition, % at 5.6 µM; 220,000 tested, 1.1% active; AID 1446; Ba/F3 EpoR-JAK2V617F viability, ATP luminescence;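 active = inhibition above the campaign mean plus 3 SD over all tested compounds, cut at about 24% in these data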;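 note: cytokine-independent growth of Ba/F3 cells driven by EpoR plus mutant JAK2; 0% = DMSO-treated cells and 100% = JAK inhibitor I control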
An asterisk follows results filed as active; & = joins results of further samples; ! = a repeat was not active.

A first look (7 entries):
1: CCCCC1=NC2(CCCC2)C(=O)N1Cc1ccc(-c2ccccc2-c2nn[nH]n2)cc1
2: NS(=O)(=O)c1cc2c(cc1Cl)NC=NS2(=O)=O
3: Clc1ccccc1C(c1ccccc1)(c1ccccc1)n1ccnc1
4: O=c1c2ccccc2sn1-c1ccccc1
5: CN(C)CCOC(c1ccccc1)c1ccccc1 (tested in a mixture with another compound)
6: COc1ccc(Cl)cc1C(=O)NCCc1ccc(S(=O)(=O)NC(=O)NC2CCCCC2)cc1
7: CN(C)CCCN1c2ccccc2CCc2ccc(Cl)cc21

| Compound | 1 | 2 | 3 | 4 | 5 | 6 | 7 |
| --- | --- | --- | --- | --- | --- | --- | --- |
| Ba/F3 V617F tox | 3.7 | -1.0 | -0.6 | -1.5 | 2.3 | -3.2 | 2.6 |
| S1P4 antagonist | 3.8 | -13.3 | -6.0 | 8.6 | -5.0 | -11.1 | -15.6 |
| CHOP inh | 7.3 | 9.4&-6.4 | 88.2*! | 108.1* | 29.1 | 10.3&-10.9 | 29.2&-11.6 |
| BaF3 tox | -16.1 | 1.2 | 8.1 | 2.8 | 8.2 | 3.2 | 6.1 |
| S1P4 ag | 1.4 | 2.2 | -2.1 | 1.2 | -0.3 | -0.1 | 0.8 |

Main list, from the first entry:
1: CCCCC1=NC2(CCCC2)C(=O)N1Cc1ccc(-c2ccccc2-c2nn[nH]n2)cc1
2: NS(=O)(=O)c1cc2c(cc1Cl)NC=NS2(=O)=O
3: Clc1ccccc1C(c1ccccc1)(c1ccccc1)n1ccnc1
4: O=c1c2ccccc2sn1-c1ccccc1
5: CN(C)CCOC(c1ccccc1)c1ccccc1 (tested in a mixture with another compound)

| Compound | 1 | 2 | 3 | 4 | 5 |
| --- | --- | --- | --- | --- | --- |
| Ba/F3 V617F tox | 3.7 | -1.0 | -0.6 | -1.5 | 2.3 |
| S1P4 antagonist | 3.8 | -13.3 | -6.0 | 8.6 | -5.0 |
| CHOP inh | 7.3 | 9.4&-6.4 | 88.2*! | 108.1* | 29.1 |
| BaF3 tox | -16.1 | 1.2 | 8.1 | 2.8 | 8.2 |
| S1P4 ag | 1.4 | 2.2 | -2.1 | 1.2 | -0.3 |

6: COc1ccc(Cl)cc1C(=O)NCCc1ccc(S(=O)(=O)NC(=O)NC2CCCCC2)cc1
7: CN(C)CCCN1c2ccccc2CCc2ccc(Cl)cc21
8: CC1(C)SC2[C@H](NC(=O)C(NC(=O)N3CCNC3=O)c3ccccc3)C(=O)N2C1C(=O)O (some centres not stated)
9: COCCNc1cc(C)nc2ccccc12
10: OC[C@@H](O)[C@@H](O[C@H]1O[C@H](CO)[C@@H](O)[C@H](O)[C@H]1O)[C@H](O)[C@@H](O)CO

| Compound | 6 | 7 | 8 | 9 | 10 |
| --- | --- | --- | --- | --- | --- |
| Ba/F3 V617F tox | -3.2 | 2.6 | -2.5 | 0.5 | -7.0 |
| S1P4 antagonist | -11.1 | -15.6 | -11.0 | -11.8 | 1.2 |
| CHOP inh | 10.3&-10.9 | 29.2&-11.6 | 0.2 | -6.3 | 4.8 |
| BaF3 tox | 3.2 | 6.1 | 0.3 | 3.2 | -0.3 |
| S1P4 ag | -0.1 | 0.8 | -2.1 | -1.0 | -0.5 |

11: CC(=O)Nc1c(I)c(NC(C)=O)c(I)c(C(=O)O)c1I
12: CN1[C@@H]2CC(OC(=O)[C@H](CO)c3ccccc3)C[C@H]1[C@@H]1O[C@@H]12 (some centres not stated)
13: CN(C)c1nc(N(C)C)nc(N(C)C)n1
14: CC#C[C@]1(O)CC[C@H]2[C@@H]3CCC4=CC(=O)CCC4=C3[C@@H](c3ccc(N(C)C)cc3)C[C@@]21C
15: CCc1cc(C(N)=S)ccn1

| Compound | 11 | 12 | 13 | 14 | 15 |
| --- | --- | --- | --- | --- | --- |
| Ba/F3 V617F tox | -1.4&3.3 | -2.2&5.0 | 1.1 | 1.6 | -2.9 |
| S1P4 antagonist | -13.3&-2.7 | -11.1&-4.2 | -1.9 | -6.7 | -5.9 |
| CHOP inh | 14.9&-2.2 | 10.5&10.7 | 3.1&-1.7 | 20.1&32.4 | 7.0 |
| BaF3 tox | -1.5&4.9 | 7.2&8.9 | 9.2 | 6.3 | -2.8 |
| S1P4 ag | -0.1&-0.2 | 2.5&0.0 | 0.8 | -0.1 | 0.3 |

16: O=c1n(CCCN2CCN(c3cccc(Cl)c3)CC2)nc2ccccn12
17: COC1=CC(=O)CC(C)C12Oc1c(Cl)c(OC)cc(OC)c1C2=O (configuration not stated)
18: COc1cc(/C=C/C(=O)CC(=O)/C=C/c2ccc(O)c(OC)c2)ccc1O
19: CC(C)(Sc1cc(C(C)(C)C)c(O)c(C(C)(C)C)c1)Sc1cc(C(C)(C)C)c(O)c(C(C)(C)C)c1
20: CCS(=O)(=O)CCn1c([N+](=O)[O-])cnc1C

| Compound | 16 | 17 | 18 | 19 | 20 |
| --- | --- | --- | --- | --- | --- |
| Ba/F3 V617F tox | -1.2 | 1.1 | 5.9 | -3.7 | -4.7 |
| S1P4 antagonist | -24.1 | -29.6 | 0.9 | -18.6 | -22.1 |
| CHOP inh | 8.1&4.8 | 26.5 | 13.2 | 8.3 | -0.2 |
| BaF3 tox | 5.0 | 5.8 | 5.3 | 1.1 | -0.1 |
| S1P4 ag | 3.3 | 1.7 | 1.0 | 49.1* | 0.1 |

An excerpt; the hit share may differ from the screen's.
